T cruzi inh: blocks replication of Trypanosoma cruzi | T. cruzi beta-gal in NIH3T3, luminescence, 90 h | inhibition, % (concentration not given with the values) | 1.4% of 300,000 active | AID 1885;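 active means mean inhibition across valid replicates above about 55%, limit read from the data; inconclusive means mean below that limit but half or more replicates reach it; inactive means mean below it, under half of replicates reach it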;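 further: signal also drops with host cell toxicity which is not excluded here; 0% = plate median of DMSO wells and 100% = zero luminescence signal; higher percent means less beta-gal luminescence so fewer parasites; stock transfer was 50 nL into about 50 µL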
Ecoli rRNA inh: selective bacterial rRNA inhibition in E. coli. E. coli WT GFP vs humanized-ribosome RFP mutants, fluorescence, 24 h; hits give low values; DMSO median 0, no signal -100. 1.6% of 350,000 active. GFP signal change (wild-type ribosome), % (concentration not given with the values);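 active means significant combined selectivity score with lowered wild-type GFP, culture density cut under 30%, mutant RFP and density less affected; inactive means any of these conditions unmet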; further: one replicate is shown; some compounds called inactive have numbers as strong as hits
B2AR ag: human beta-2 adrenergic receptor agonism by FAP; response, % (no concentration beside the values); P07550; Am2.2-beta2AR cells, FAP receptor internalization, flow cytometry; reference of the scale not given here; 0.43% of 340,000 active; AID 504454;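 active means response above a set limit, near 3 SD of response in nonfluorescent compounds, cut at about 42% in these data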;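 further: stock transfer was 100 nL into about 11 µL; a reference agonist was the positive control; negative values mostly stem from fluorescent compounds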
Target sequence (P07550 whole entry, looked up): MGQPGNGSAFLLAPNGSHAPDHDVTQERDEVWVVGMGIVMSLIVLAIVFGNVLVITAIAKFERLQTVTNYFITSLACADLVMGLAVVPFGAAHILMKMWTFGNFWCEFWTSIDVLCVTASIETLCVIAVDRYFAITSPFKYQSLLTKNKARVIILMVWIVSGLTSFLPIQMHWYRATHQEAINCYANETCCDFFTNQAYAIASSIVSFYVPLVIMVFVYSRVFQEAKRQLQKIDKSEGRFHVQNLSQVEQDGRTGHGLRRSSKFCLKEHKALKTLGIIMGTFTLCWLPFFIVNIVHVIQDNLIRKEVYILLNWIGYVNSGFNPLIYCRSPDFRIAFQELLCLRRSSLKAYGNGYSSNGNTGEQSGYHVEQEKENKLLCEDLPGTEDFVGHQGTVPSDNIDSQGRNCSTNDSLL
Calb FLC: affects C. albicans growth with fluconazole | C. albicans CaCi-2 (fluconazole-resistant clinical isolate) + fluconazole, Alamar Blue growth, 48 h | growth inhibition, % (test concentration not listed) | AID 1979 | 0.57% of 300,000 active;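 active means most replicates above 75%; inconclusive means exactly half above 75%; inactive means most below 75%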;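 further: all wells also contain fluconazole at 8 µg/ml as a sub-toxic cotreatment; 0% = median of DMSO wells and 100% = median of geldanamycin control wells; wells of about 8 µL received 7.5 nL stock; the first replicate is given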
ALR inh: human ALR oxidase inhibition via reduced H2O2 | P55789 | purified ALR, DTT oxidation, H2O2 HRP-luminol luminescence | inhibition, % (concentration not given with the values) | 3.8% of 290,000 active;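 active means mean and each replicate at 75% or more; inconclusive means only one of the two met; inactive means neither met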;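 further: stock transfer was 7.5 nL into about 7.5 µL; 0% = neutral wells and 100% = wells with inactivated enzyme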
Target sequence (P55789 whole entry, looked up): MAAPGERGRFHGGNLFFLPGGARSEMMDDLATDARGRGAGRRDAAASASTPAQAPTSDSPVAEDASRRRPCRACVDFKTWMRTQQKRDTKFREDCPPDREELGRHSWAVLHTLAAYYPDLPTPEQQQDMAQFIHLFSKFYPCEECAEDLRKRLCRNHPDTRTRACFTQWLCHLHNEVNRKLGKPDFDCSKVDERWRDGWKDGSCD
A1 inh: inhibitors of the anti-apoptotic protein A1, read as caspase activation; caspase activation, % (no concentration beside the values); 0.066% of 330,000 active; MEF A1-2A-BIM cells, Caspase-Glo 3/7 luminescence, 3 h; percent of clofoctol response, vehicle zero;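 active means over half of replicate activation scores above 10%, or exactly half above 10 with the replicate mean above 10; inconclusive means replicate mean below 10 yet half the replicates above 10; inactive means over half of replicates below 10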;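 further: wells of about 30 µL received 50 nL stock; many hits fall short of the cut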
Beta apoptosis: blocks beta cell apoptosis; INS-1E cytokine-induced death, ATP luminescence, 48 h; percent of positive-control rescue, neutral wells zero; protection from apoptosis, % (concentration not given with the values); 0.8% of 300,000 active;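 active means all replicates at 75% or more, or half of them and the mean; inconclusive means half reach 75% but not the mean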;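 further: 0% = cytokine-treated negative control wells and 100% = positive control rescue; higher means more ATP so stronger rescue from cytokine killing; wells of about 40 µL received 100 nL stock; the first replicate is given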
LANA-H2B inh: blocks KSHV LANA binding to histone H2A/H2B. Q9QR71. cell-free LANA-H2A/H2B peptide, fluorescence polarization. inhibition, % (test concentration not listed). 0.6% of 320,000 active; in the data active means inhibition mostly above about 10%, no sharp cut-off; inactive means mostly below about 6.7%;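 further: stock transfer was 7.5 nL into about 10 µL; 0% = median of vehicle wells and 100% = median of positive control wells; one replicate is shown; the record names a cut of 25% in any replicate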
Ecoli rRNA inh OD600: further read-out of Ecoli rRNA inh, marked with its call; OD600 change, %; measured here: OD600 growth;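 optical density of the mix in the first replicate; 0 = DMSO median and -100 = no signal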
Ecoli rRNA inh RFP: recorded beside Ecoli rRNA inh, whose call it bears; RFP signal change, %; measured here: RFP humanized mutant strains;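 first replicate; 0 = DMSO median and -100 = no signal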
The depositor's hits bear a star; ? = inconclusive; nt = no result given. Some of the compounds tested. The share of hits here may be higher or lower than overall.

SMILES	T cruzi inh	Ecoli rRNA inh	Ecoli rRNA inh OD600	Ecoli rRNA inh RFP	B2AR ag	Calb FLC	ALR inh	A1 inh	Beta apoptosis	LANA-H2B inh
COc1ccc(CC(=O)Nc2ccc(-c3noc(COc4ccccc4C)n3)cc2)cc1	11	nt	nt	nt	2	26	nt	-0.3	3	nt
O=C(CCc1nc(-c2ccccc2Cl)no1)NC1CCCC1	4	1	0	0.8	6	-11	-8	0.9	5	-1.0
COCCNCC#CCOc1ccc(OC)cc1	4	nt	nt	nt	1	-8	-6	-0.1	-8	0.2
COc1ccc(OC)c(NC(=O)CCCN2C(=O)C3C4C=CC(C4)C3C2=O)c1 (centres undefined)	2	nt	nt	nt	-2	1	-12	0.5	-5	-6.2
CS(=O)(=O)Nc1cccc(C2=NN(C(=O)CCC(=O)O)C(c3cccs3)C2)c1 (centres undefined)	-6	11	11	-2.7	-9	4	2	0.8	-17	6.1
CC(C)[C@H](NC(=O)Nc1ccc(Oc2ccccc2)cc1)C(=O)O	-7	nt	nt	nt	-10	-4	-3	-1.0	-1	-3.7
O=C(O)CC12CC3CC(C1)CC(n1ncc(NCC4CCCO4)c(Cl)c1=O)(C3)C2 (centres undefined)	-14	6	10	1.1	6	-2	-5	-1.9	-5	1.3
CC(=O)N(C)c1ccc(N2CCOCC2)c2c1C(=O)c1ccccc1C2=O	-3	4	3	-5.7	-16	8	-10	0.4	1	-2.5
O=C(c1ccccc1)N1CCN(Cc2ccccc2C(F)(F)F)CC1	-2	-28	-43	-9.8	3	-13	0	-0.4	11	3.2
CC1CCCCN1C(=S)NCCc1ccccc1 (centres undefined)	0	nt	nt	nt	7	6	-14	0.9	-3	-5.2
C/C(=N/NC(=O)CCc1ccccc1)c1ccco1	-27	0	10	-1.2	-1	-3	3	0.2	-5	0.8
CCCN(CCC)Cc1c(C(=O)N/N=C/c2ccco2)nnn1-c1nonc1N	-2	2	6	-3.0	-6	2	-4	0.1	3	0.7
CC(=O)N1CCc2cc(Br)cc(S(=O)(=O)N3CCC(C(=O)O)CC3)c21	-12	3	7	3.3	0	0	-10	-0.4	3	-12
COCc1cc(=O)n2[nH]cc(-c3ccccc3)c2n1	-2	-39	-43	-7.3	9	8	50	1.5	7	2.3
O=C(NCc1cccc2[nH]ccc12)C1CCC(=O)N(CCc2ccc(Cl)cc2)C1 (centres undefined)	0	-9	-7	-0.1	3	-8	-3	1.6	2	3.5
O=C(CN(Cc1ccc(F)cc1)C(=O)CCC(=O)Nc1nccs1)NCC1CCCO1 (centres undefined)	2	6	13	-1.3	0	4	-4	0.1	-6	1.3
O=C(Nc1nnc(CCc2ccccc2)s1)c1ccccc1F	1	11	13	-0.4	6	10	4	-2.1	-3	-0.1
O=C(CN1CCN(c2ccccc2)CC1)Nc1ccc(OCc2ccccc2)cc1	7	nt	nt	nt	-3	-8	0	-0.5	3	-1.5
COc1ccc(-n2nc(C(=O)NCC(=O)N3CCN(c4ccccc4F)CC3)c3ccccc3c2=O)cc1	-4	9	20	1.1	1	6	-1	0.0	8	-3.5
CC(=O)Nc1ccc(NC(=O)C2CC(=O)N(c3cccc(Cl)c3)C2)cc1 (centres undefined)	0	10	5	8.8	10	-3	-4	-0.2	0	3.0
CCOc1ccc2nc(N(CCCN(C)C)C(=O)c3ccc(S(=O)(=O)N4CCCC4)cc3)sc2c1	35	11	12	3.6	-10	0	-2	0.9	-17	4.7
COc1ccc(C(C)NS(=O)(=O)Cc2ccccc2)cc1 (centres undefined)	-2	7	1	2.4	10	-14	17	0.4	1	4.5
CCOc1ccc(NC(=O)c2ccc(NC(=O)Cc3n[nH]c(=O)c4ccccc34)cc2)cc1	0	3	2	-9.0	-9	-1	-1	-0.2	7	-1.1
Cc1nnc(NC(=O)COc2ccc3c(C)cc(=O)oc3c2)s1	-10	nt	nt	nt	-1	-4	-2	-1.0	-3	3.6
C=CCN(CC=C)C(=O)c1cc(Cl)ccc1[N+](=O)[O-]	4	1	7	-1.2	2	-13	-3	?	-3	0.6
CCOC(=O)Cn1nc(-c2ccc(C)cc2)c2ccccc2c1=O	4	-4	4	1.7	5	1	1	0.7	0	1.0
c1ccc2[nH]c(NCc3ccc4c(c3)OCO4)nc2c1	-8	4	-1	0.5	-2	-7	47	-3.5	-4	3.4
C=CCOc1ccc(/C=C/C(=O)OCC(=O)NCC2CCCO2)cc1 (centres undefined)	-10	4	6	-1.4	2	-5	-7	-0.8	-1	3.5
CC1CCCCC1NC(=O)CCS(=O)(=O)c1cc2c(cc1Cl)NC(=O)CO2 (centres undefined)	2	5	16	4.2	-11	0	-2	0.4	0	1.0
NC(=O)c1ccccc1OCC(=O)NC12CC3CC(CC(C3)C1)C2	-9	nt	nt	nt	-17	-5	-10	-4.7	-1	2.0
CCOCCCNc1nc(-c2ccccc2)nc2ccccc12	22	-20	-56	16	0	4	13	0.6	4	-4.6
CC(C)N(C(=O)c1ccc2nc(-c3ccccc3)c(-c3ccccc3)nc2c1)C(C)C	33	nt	nt	nt	-5	10	nt	0.6	8	-0.7
Cc1nnc(SCC(=O)N2CC(C)OC(C)C2)n1-c1ccccc1 (centres undefined)	-4	7	5	-1.6	4	1	-13	0.2	-4	-2.9
C[C@@H]1CN(c2c(F)c(F)c3c(=O)c(C(=O)O)cn(C4CC4)c3c2F)C[C@H](C)N1	3	-55	-80	-19	3	-4	nt	nt	nt	nt
Cc1ccnc(NC(=O)CCCc2c[nH]c3ccccc23)c1	-1	9	11	2.8	2	4	13	-1.2	nt	0.2
CC(=O)Nc1ccc(S(=O)(=O)Nc2nnc(Cc3ccc(Cl)cc3)s2)cc1	-9	-8	-7	-1.8	3	-10	nt	-0.6	-7	-3.1
Cc1cccc(CNC(=O)Cn2ccc3cc(S(=O)(=O)N4CCCC4)ccc32)c1	6	14	13	3.3	6	15	-13	1.2	-1	-1.7
CC(C)OCCCNC(=O)C1CCC(CNS(=O)(=O)c2ccc(Cl)cc2)CC1 (centres undefined)	-8	nt	nt	nt	4	-8	-4	-0.1	8	-5.5
O=c1c2cc([N+](=O)[O-])cc([N+](=O)[O-])c2[nH]n1-c1ccccc1	3	-8	14	26	-10	2	48	-6.4	12	-1.8
COCCn1c(SC(C)C(=O)NCC2CCCO2)nc2scc(-c3ccc(F)cc3)c2c1=O (centres undefined)	7	-3	-5	0.6	-3	3	0	0.1	5	5.7
CC(NC(=O)C1CCCN(S(=O)(=O)N2CCOCC2)C1)c1ccccc1 (centres undefined)	-12	3	7	-2.0	5	0	-9	0.2	-2	0.7
Cc1cc(NCCCN2CCOCC2)n2nc(C)c(-c3ccc(F)cc3)c2n1	32	nt	nt	nt	-2	-32	98*	-0.4	1	-0.8
CCc1cc[n+](-c2nc([O-])sc2C=O)cc1	14	nt	nt	nt	3	-6	-15	-0.1	-6	8.2
CCC(C)c1ccccc1NC(=O)CN(C)CC(=O)Nc1ccccc1SC (centres undefined)	8	-8	-14	1.7	-2	2	nt	0.0	-1	-1.9
COc1cccc(NC(=O)C(Sc2nnc(-c3ccncc3)n2-c2ccc(Cl)cc2)c2ccccc2)c1 (centres undefined)	38	3	10	6.1	4	28	-4	-0.1	2	-2.0
Cc1onc(C(=O)NCc2cccs2)c1[N+](=O)[O-]	-21	13	20	0.7	5	39	2	0.8	-3	-2.7
CC1CC(C)CN(S(=O)(=O)c2ccc3c(c2)oc(=O)n3CC(=O)N2CCOCC2)C1 (centres undefined)	-7	11	10	2.3	8	-3	-7	-0.2	3	8.9
COc1ccccc1NC(=O)CSc1nnnn1C1CCCC1	6	2	-6	-2.2	-4	6	nt	nt	nt	nt
O=C(NCC1CCCO1)c1ccc2c(=O)n(Cc3ccc(Cl)cc3)c(=S)[nH]c2c1 (centres undefined)	-1	11	10	0.9	3	-1	20	1.0	2	-1.9
O=C(Oc1ccc(C(=S)N2CCOCC2)cc1)c1ccc([N+](=O)[O-])cc1[N+](=O)[O-]	-3	9	5	-0.2	6	4	-5	-0.1	nt	-1.4
COc1ccc(C(=O)NCC(=O)N/N=C/c2cn(C)c3ccccc23)cc1OC	nt	9	9	3.2	-37	-13	-7	-1.3	14	2.2
O=C(Nc1cccc(Br)c1)c1ccc(CSc2ccccc2)cc1	-9	7	8	-3.6	5	0	-3	-1.2	3	-4.4
O=C(Nc1ccccc1Cl)OC1CCCCC1	-7	-1	11	-4.1	-1	7	-19	-1.1	2	8.8
Cc1ccccc1NC(=O)/C=C1\SC(=O)NC1=O	-6	-8	-5	2.6	17	-17	17	1.4	-2	-1.8
CCCCNC(=O)C1CCN(c2nc(C)cc(C)n2)CC1	-17	-3	1	-3.9	-3	-42	-12	-2.0	-4	0.2
CCCn1c2ccccc2c2cc(C(=O)O)ccc21	-4	-5	-11	4.1	5	40	-3	0.2	0	0.5
CC(C)NC(=O)C(c1ccc(F)cc1)N(C(=O)CCC(=O)Nc1ccccn1)C1CCCCC1 (centres undefined)	-5	-1	1	2.4	-9	-2	-3	0.1	2	-3.3
Cc1c(CC(=O)NCCCCCC(=O)O)c(=O)oc2cc3c(cc12)CCC(C)(C)O3	-7	1	7	1.9	-1	-9	-18	0.7	-3	-3.2
O=C(NC(=S)Nc1ccc(N2CCOCC2)cc1)c1ccco1	-8	nt	nt	nt	-12	-5	16	-3.4	2	3.9

Arranged by molar mass (low to high): 5 of the compounds above.
SMILES	T cruzi inh	Ecoli rRNA inh	Ecoli rRNA inh OD600	Ecoli rRNA inh RFP	B2AR ag	Calb FLC	ALR inh	A1 inh	Beta apoptosis	LANA-H2B inh
CCCn1c2ccccc2c2cc(C(=O)O)ccc21	-4	-5	-11	4.1	5	40	-3	0.2	0	0.5
Cc1ccccc1NC(=O)/C=C1\SC(=O)NC1=O	-6	-8	-5	2.6	17	-17	17	1.4	-2	-1.8
CCCCNC(=O)C1CCN(c2nc(C)cc(C)n2)CC1	-17	-3	1	-3.9	-3	-42	-12	-2.0	-4	0.2
O=C(NC(=S)Nc1ccc(N2CCOCC2)cc1)c1ccco1	-8	nt	nt	nt	-12	-5	16	-3.4	2	3.9
COc1ccccc1NC(=O)CSc1nnnn1C1CCCC1	6	2	-6	-2.2	-4	6	nt	nt	nt	nt

Ordered by the number under Ecoli rRNA inh (low to high): some entries from above.
| SMILES | Ecoli rRNA inh |
| --- | --- |
| COc1ccccc1NC(=O)CSc1nnnn1C1CCCC1 | 2 |
| O=C(NCC1CCCO1)c1ccc2c(=O)n(Cc3ccc(Cl)cc3)c(=S)[nH]c2c1 (centres undefined) | 11 |
| Cc1onc(C(=O)NCc2cccs2)c1[N+](=O)[O-] | 13 |

Source: PubChem BioAssay
